Screens (PubChem BioAssay)
SARS PLP yeast = qHTS of Yeast-based Assay for SARS-CoV PLP; Potency, µM (top dose mostly 32.9 µM), inactives show at the highest dose activity, positive = growth rescue; hit rate 0.19% among 330,000; S. cerevisiae expressing SARS-CoV PLpro, growth rescue; control for the full effect not named in the record; AID 485353, 2010; note: 0% is about no effect; nearly all actives have a fitted effect of over 55% in size; growth read by luminescence after 48 h
Cruzain inh noDet = qHTS Assay for Promiscuous and Specific Inhibitors of Cruzain (without detergent) | Cruzipain (Trypanosoma cruzi), P25779 | purified cruzain, Z-FR-AMC fluorescence, no detergent | Potency, µM, without a hit: max response, negative = inhibition, usual class: inhibitors | hit rate 2.3% among 200,000; active = well fitted curve in the direction sought with a large enough effect; inconclusive = small, poorly fitted or top-dose-only effect, or another doubt; inactive = no such curve, though single readings can be large; an effect the other way counts as inactive or inconclusive;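 note: plate controls were enzyme without inhibitor for no effect and buffer without enzyme for full effect; nearly all actives have a fitted effect of over 40% in size; top concentration of the series not given in the record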
Target sequence (P25779 123-467 limits assumed): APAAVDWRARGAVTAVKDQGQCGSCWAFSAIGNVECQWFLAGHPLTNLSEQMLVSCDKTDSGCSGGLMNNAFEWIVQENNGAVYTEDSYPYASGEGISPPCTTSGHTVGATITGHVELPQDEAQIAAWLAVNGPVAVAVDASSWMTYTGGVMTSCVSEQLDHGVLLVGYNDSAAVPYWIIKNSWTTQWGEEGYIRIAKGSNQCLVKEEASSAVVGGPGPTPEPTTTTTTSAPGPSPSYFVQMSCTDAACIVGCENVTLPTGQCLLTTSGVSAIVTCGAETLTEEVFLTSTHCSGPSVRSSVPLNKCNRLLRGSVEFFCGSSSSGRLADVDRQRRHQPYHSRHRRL
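Purified cruzain at 1.5 nM, pre-incubated 15 min with compound at room temperature in 100 mM sodium acetate pH 5.5, 5 mM DTT, 0.00005% Triton X-100. Reaction started with 2 uM Z-FR-AMC; AMC fluorescence increase over 60 s gives rate.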
Cruzain Triton = qHTS Assay for Promiscuous and Specific Inhibitors of Cruzain (with detergent) | Cruzipain (Trypanosoma cruzi), P25779 | purified cruzain, Z-FR-AMC fluorescence, 0.01% Triton | Potency, µM, without a hit: max response, negative = inhibition, hits mostly inhibitors | hit rate 0.43% among 200,000 | AID 1478, 2009; active = well fitted curve in the direction sought with a large enough effect; inconclusive = small, poorly fitted or top-dose-only effect, or another doubt; inactive = no such curve, though single readings can be large; an effect the other way counts as inactive or inconclusive;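 note: plate controls were neutral wells for no effect and buffer without enzyme for full effect; nearly all actives have a fitted effect of over 40% in size; top concentration of the series not given in the record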
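Steps: dispense cruzain (1.5 nM final) in acetate buffer pH 5.5 with DTT and 0.01% Triton X-100; pin-transfer compounds; incubate 15 min RT; add Z-FR-AMC (2 uM final); read fluorescence every 30 s, using the 60 s intensity change.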
NS1 inh = qHTS Assay for Inhibitors of Influenza NS1 Protein Function | S. cerevisiae slowed by influenza A NS1, growth recovery by OD600 | Potency, µM (doses to about 46.1 µM), without a hit: at the highest dose activity, positive = more growth | hit rate 0.4% among 270,000 | AID 2326, 2010; note: actives are rising curves; nearly all actives have a fitted effect of over 50% in size
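A cell-based growth assay was used: compounds that relieve NS1-induced slow growth of budding yeast raise OD600. Assay medium was yeast nitrogen base with ammonium sulphate and -URA supplement, pH 6.0, with 2% galactose.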
Lassa entry inh = qHTS for Inhibitors of binding or entry into cells for Lassa Virus | Lassa virus pseudotype entry inhibition, cell reporter; control for the full effect not named in the record | Potency, µM (top dose mostly 37.9 µM), inactives show at the top dose activity change, negative = inhibition, hits mostly inhibitors | hit rate 1.2% among 300,000 | AID 540256, 2011; active means well fitted inhibition curve with a large enough effect; inconclusive means small, poorly fitted or top-dose-only effect, or effect the other way; inactive means flat fitted curve, though single readings scatter; tested in HEK293 cells; note: % is set by controls: 0 for no effect and ±100 for the full control effect; nearly all actives have a fitted effect of over 50% in size; luciferase read-out
2A StopGo = High Throughput Screening for Foot and Mouth Disease Virus Antivirals; human cells with a luciferase reporter of 2A StopGo recoding; control for the full effect not named in the record; Potency, µM (titrated, usually from 57.9 µM), inactives show top-dose signal change, negative = less light; hit rate 1.2% among 410,000; active = well fitted falling curve with a large enough effect; inconclusive = small, poorly fitted or top-dose-only effect; inactive = no such curve, though single readings can be large or run the other way; tested in HEK293T cells; note: % is set by controls: 0 for no effect and ±100 for the full control effect; nearly all actives have a fitted effect of over 45% in size; luciferase light after 4 h
RE007 growth inh = qHTS Assay for Inhibitors of the HIV-1 protein Vpr. S. pombe RE007 Vpr strain, BacTiter-Glo ATP luminescence, 24 h; control for the full effect not named in the record. Potency, µM (highest dose often 92.2 µM), inactives show at the top dose activity change, negative = less growth. hit rate 0.21% among 360,000. AID 651644, 2012; active = well fitted falling curve with a large enough effect; inconclusive = small, poorly fitted or top-dose-only effect; inactive = no such curve, though single readings can be large or run the other way;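 note: % is set by controls: 0 for no effect and ±100 for the full control effect; nearly all actives have a fitted effect of over 50% in size; the assay follows cell death caused by Vpr and the record does not say whether a fall means rescue or toxicity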
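Fission yeast RE007 carrying one integrated HIV-1 vpr copy, seeded at OD 0.01 in PMG+AL medium with 23 nL pinned compound. Grown 24 h at 30 degrees; viability read by BacTiter-Glo luminescence after 5 min.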
MARV entry inh = qHTS for inhibitors of binding or entry into cells for Marburg Virus | Potency, µM (titrated, usually from 37.8 µM), for the others: at the highest dose activity change, negative = inhibition, most hits filed as inhibitors | hit rate 1.8% among 300,000 | Marburg virus pseudotyped entry inhibition, cell reporter; control for the full effect not named in the record; about a third of the inactives were read at about 46 µM; active = well fitted inhibition curve with a large enough effect; inconclusive = small, poorly fitted or top-dose-only effect, or effect the other way; inactive = flat fitted curve, though single readings scatter; tested in HEK293 cells; about a fifth of its hits are not listed in these tables; note: % is set by controls: 0 for no effect and ±100 for the full control effect; luciferase read-out
* = called active by the depositor; ? = inconclusive; · = no result given; & = joins results of further samples; [ ] = another dose, or the depositor's remark. Unless noted, calls come from the whole dose curve; as a rule, active means well fitted rising curve with a large enough effect; inconclusive means small, poorly fitted or top-dose-only effect; inactive means no such curve, though single readings can be large or run the other way. Potency is the fitted concentration of half-maximal effect.

SMILES	SARS PLP yeast	Cruzain inh noDet	Cruzain Triton	NS1 inh	Lassa entry inh	2A StopGo	RE007 growth inh	MARV entry inh
Cc1c(NC(=O)COC(=O)c2ccc(F)c(S(=O)(=O)N3CCOCC3)c2)c(=O)n(-c2ccccc2)n1C	2%	·	·	-3%	0%	-11%	12%	-7%[46.1 µM]
CC(=O)Nc1ccc(S(=O)(=O)N2CCN(C(=O)c3ncoc3-c3ccccc3)CC2)cc1	1%	·	·	18%	·	-12%	13%	-9%[46.1 µM]
Cc1ccc(-n2nc3c(N4CCC(C(=O)NCc5ccccc5Cl)CC4)nnc(C)c3c2C)cc1	·	-10%	-28%	·	-15%[46.1 µM]	?	·	·
Cc1ccc(-c2nnn(C/C(N)=N/O)n2)cc1	0%	·	·	0%	·	6%	8%	·
Cc1cc(SCC(=O)c2cccs2)n2nc(C)c(-c3ccccc3)c2n1	4%	?	-2.9%	?	?	-5%	2%	?
O=C(O)C1CCCCC1C(=O)N1CCCC1 (stereo unspecified)	4%	·	·	3%	8%[46.1 µM]	-3%	-12%	6%[46.1 µM]
COc1ccc(N2CCN(C(=O)CNS(=O)(=O)c3ccc(C)c(C)c3)CC2)cc1	1%	·	·	·	2%	-22%	-8%	?
C=CCc1ccccc1OCCSc1nc2ccc([N+](=O)[O-])cc2s1	-2%	?	-7.4%	-10%	7%	0%	3%	-1%
COC(=O)C1C2C=CC3(CN(c4cccc(C)c4)C(=O)C13)O2 (stereo unspecified)	4%	-3%	0.9%	1%	-11%	15%	-19%	7%
O=C(NCCN1CCOCC1)c1cccc(S(=O)(=O)Nc2cc(Cl)ccc2Cl)c1	-1%	·	·	·	-1%	-11%	-10%	7%
CC(=O)c1cc2c(s1)-c1cc(F)ccc1OC2	-1%	·	·	-7%	-23%	0%	-5%	?
Cc1ccccc1NC(=O)c1sc2nc(-c3cc4ccccc4oc3=O)[nH]c(=O)c2c1C	·	0%	-1.8%	·	18%[46.1 µM]	-22%	·	·
O=[N+]([O-])c1cccc(/C([O-])=C(/C(=S)Nc2ccccc2)[n+]2ccccc2)c1	-17%	25µM*	-22%	?	9%	32%[activator]	-16%	?
CC(C)(C)[C@H]1C=C(C(=O)N2CCN(Cc3ccccc3)CC2)O[C@@H](OCCCCO)C1	1%	·	·	-8%	·	-24%	0%	·
CC(C)CC(c1nnnn1C1CCCC1)N1CCC(C(N)=O)CC1 (stereo unspecified)	2%	·	·	·	4%	-3%	4%	0%[46.1 µM]
O=C(NCCCN1CCOCC1)c1cc(-c2cccc(O)c2)on1	11%	·	·	7%	14%[46.1 µM]	22%	-6%	-1%[46.1 µM]
COC(=O)c1ccc2c(=O)n(CCCCCC(=O)N3CCN(c4ccc(F)cc4)CC3)c(=O)[nH]c2c1	1%	8%	-7.0%	-7%	0%	?	-16%	-2%&-2%
O/N=C/c1ccc(OCC(O)COc2ccc(/C=N/O)cc2)cc1	1%	1%	0.7%	0%	0%	-5%	-6%	-2%
COc1ccc([N+](=O)[O-])cc1N1C(=O)c2cccc3cccc(c23)C1=O	-12%	4%	-6.8%	22%	-4%	-7%	-11%	-14%
CC(=O)/C(C#N)=C1\NC(=O)C(Cc2ccccc2Cl)S1 (stereo unspecified)	0%	4%	1.2%	-8%	2.3µM*	51%[activator]	10%	?
Cc1cccc(NC(=O)CCS(=O)(=O)c2cccc3nsnc23)c1C	-2%	-1%&-4%	-8.7%&0.0%	21%	12%[46.1 µM]	2%&7%	0%	9%[46.1 µM]
COc1ccc(C2N(C(=O)c3ccccc3)CCN2C(=O)c2ccccc2)cc1	-1%	-25%	1.5%	1%	?	9%	-12%	-19%[46.1 µM]
O=C(O)c1ccc2c(c1)C(=O)N(c1ccc(/C=C/C(=O)c3ccccc3)cc1)C2=O	-2%	·	·	12%	19%	14µM*	-6%	?
O=C(Nc1ccnn1C1CCN(Cc2cccc(O)c2)CC1)C1CCCC1	0%	·	·	-2%	-5%	-19%	-7%	26%
COc1ccc(NS(=O)(=O)c2cccc(N3CC(O)=C(c4ccccc4)C3=N)c2)cc1	17%	5%	-4.8%	-6%	·	6%	0%	2%
CCOc1ccc(S(=O)(=O)N2CCN(C(=O)c3oc4ccccc4c3C)CC2)cc1	·	·	·	·	?	?	-7%	-34%
CSc1ccc(CNC(=O)C(C)n2nc(C)c3c(C)n(-c4ccccc4)nc3c2=O)cc1 (stereo unspecified)	-7%	·	·	12%	?	-23%	8%	?
CCN(CC)CCCn1c2c(c(SCC(=O)Nc3cccc(C(C)=O)c3)nc1=O)CCC2	-1%	·	·	·	18%	1%	10%	?
CCCN(CCC)CCCNC(=O)c1cc2c(=O)oc3ccc(C)cc3c2s1	·	-9%	-2.4%	·	?	-12%	·	-19%[46.1 µM]
CC(C)C(C(=O)OCC(=O)c1cccc([N+](=O)[O-])c1)N1C(=O)[C@@H]2[C@H]3CC[C@H](C3)[C@@H]2C1=O (stereo partly specified)	21%	?	16µM*	-13%	-2%	-19%	-25%	?
CC(=O)Nc1ccccc1NC(=O)CN(C)S(=O)(=O)c1ccc(C)cc1	3%	-6%	-0.1%	?	-1%	-19%	0%	-23%
COc1ccc(Cl)cc1NC(=O)CCN1CCN(c2ccccc2C)CC1	-2%	-6%	-1.8%	-5%	15%	·	1%	-5%
O=C(Nc1cccc(C(F)(F)F)c1)C1CCCN1S(=O)(=O)c1cccc2cccnc12 (stereo unspecified)	0%	12%	-0.3%	?	?	?	-9%	?
CC(C)Cc1nnc(NC(=O)CCc2c[nH]c3ccccc23)s1	2%	·	·	·	14%[46.1 µM]	-27%	-4%	6%[46.1 µM]
CCOC(=O)c1c(-c2ccc(C)cc2)csc1NC(=O)c1nc(SC(C)C)ncc1Cl	·	-5%	-3.3%	·	8%[46.1 µM]	-1%	·	3%[46.1 µM]
CCc1ccc(N2C(=O)CS(=O)(=O)C23C(=O)N(Cc2ccccc2)c2ccccc23)cc1 (stereo unspecified)	·	2.5µM*	-4.4%	·	-4%[46.1 µM]	-17%	·	·
CC1CCC(NC(=O)C(NC(=O)c2ccccc2)C(C)C)CC1 (stereo unspecified)	0%	·	·	2%	·	1%	-6%	·
CCC(CC)C(=O)Nc1nnc(SCc2cc(=O)n3cccc(C)c3n2)s1	·	-6%	-3.9%	·	-12%[46.1 µM]	-26%	·	·
O=C1CCCN1S(=O)(=O)c1ccccc1	0%	·	·	-1%	22%[46.1 µM]	17%	-1%	8%
Cc1ccc(O)c(CC(C)C)n1	3%	-5%	1.4%	-2%	-1%	-13%	-4%	-22%
CCCCCCn1cc(C(=O)O)c(=O)c2cc(F)c(N3CCCCC3)cc21	16%	·	·	-12%	·	0%	12%	·
O=C(NCc1cccc(Cl)c1)NCc1noc2ccccc12	·	-3%	0.2%	·	1%[46.1 µM]	12%	·	·
O=C(NC1CCCC1)C(c1ccccn1)N(C(=O)c1csnn1)C1CCCCC1 (stereo unspecified)	12%	-6%	-0.5%	-21%	-13%	-4%	3%	21%
Cc1cccc(C(=O)Oc2c(Sc3ccccc3)c(C)nn2C(C)(C)C)c1	·	-17%	-5.3%	·	?	?	·	5%[46.1 µM]
CCOC(=O)CSc1nc(CC)nc2ccccc12	9%	1%	-3.3%	-22%	-6%	·	0%	-2%
C=CCNC(=O)c1ccc(-c2nc3ccccc3nc2-c2ccccc2)cc1	·	·	·	·	-10%[46.1 µM]	-15%	20%	-15%[46.1 µM]
Cc1ccc(-c2cc(O)cc3sc(=O)oc23)cc1C	-4%	·	·	-48%	·	-5%	40µM*	·
Cc1ccc(-n2cc(CNCCCN3CCCC3=O)c(-c3ccc(F)cc3)n2)cc1	0%	·	·	-1%	?	4%	-7%	?
O=C(O)[C@@H]1C[C@H]1[C@@H](NP(=O)(c1ccccc1)c1ccccc1)c1ccccc1	18%	-2%&-2%	1.3%&1.3%	5%	14%	-13%	29%	3%
CC(=O)N(Cc1cc2ccccc2[nH]c1=O)c1ccc(C)cc1	-3%	·	·	-32%	·	-18%	2%	·
Cc1ccc(NC(=O)N2CCC(O)(c3ccc(Cl)cc3)CC2)cc1	-4%	11%	-2.7%	-7%	-15%	?	-11%	0%
CCOC(=O)c1cnc2c(Cl)c(Cl)ccc2c1N1CCN(C)CC1	-3%	?	-9.2%	3%	-9%	-20%	-2%	?
COc1cccc(CNCCCSc2nnnn2C)c1OC	·	-2%	-0.2%	·	12%[46.1 µM]	-5%	·	9%[46.1 µM]
O=c1n(-c2ccc(Br)cc2)cnn1-c1ncccc1[N+](=O)[O-]	-1%	·	·	3%	?	44%[activator]	18%	?
Cc1cccc(N(CC(=O)O)CC(=O)O)c1	-17%	-4%	-1.3%	-2%	-3%	-1%	-23%	-11%&-11%
CCOC(=O)c1[nH]c(C)c(/C(O)=C2\C(=O)C(=O)N(CCN3CCOCC3)C2c2ccco2)c1C (stereo unspecified)	0%	·	·	-5%	-1%[46.1 µM]	-7%	2%	-9%[46.1 µM]
Cc1ccc2nc(NS(=O)(=O)c3ccc(Cl)cc3)c(Nc3ccc(C(=O)O)cc3)nc2c1	·	16%	-5.0%	·	14%[46.1 µM]	-17%	·	·
O=C(O)c1cc(N/N=C/c2ccc(-c3ccccc3)cc2)ccc1Cl	0%	·	·	3%	·	-11%	-7%	·
CCc1ccc(CNc2ccc3c(c2)ncn3C)cc1	-8%	-1%	-0.8%	-45%	?	-7%	-18%	10%
CCOC(=O)C1CCCN(c2c(N3CCN(c4cccc(Cl)c4)CC3)c(=O)c2=O)C1 (stereo unspecified)	1%	·	·	-2%	·	-14%	-8%	·
O=[N+]([O-])c1ccc(-[n+]2c(-c3ccccc3)cc(-c3ccccc3)cc2-c2ccccc2)cc1	-5%	·	·	-6%	·	-12%	-16%	·
